Screens from PubChem BioAssay.
NS1 function inh = qHTS Assay for Inhibitors of Influenza NS1 Protein Function; Potency, µM (titrated, usually from 46.1 µM), for the others: at the top dose activity, positive = more growth; S. cerevisiae slowed by influenza A NS1, growth recovery by OD600; AID 2326, 2010; 0.4% of 270,000 active; note: actives are rising curves; nearly all actives have a fitted effect of over 50% in size
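A cell-based growth assay was used: compounds that relieve NS1-induced slow growth of budding yeast raise OD600. Assay medium was yeast nitrogen base with ammonium sulphate and -URA supplement, pH 6.0, with 2% galactose.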
SARS PLpro yeast = qHTS of Yeast-based Assay for SARS-CoV PLP; Potency, µM (series often up to 32.9 µM), inactives show at the top dose activity, positive = growth rescue; AID 485353, 2010; S. cerevisiae expressing SARS-CoV PLpro, growth rescue; control for the full effect not named in the record; 0.19% of 330,000 active; note: 0% is about no effect; nearly all actives have a fitted effect of over 55% in size; growth read by luminescence after 48 h
Lassa entry inh = qHTS for Inhibitors of binding or entry into cells for Lassa Virus; AID 540256, 2011; Lassa virus pseudotype entry inhibition, cell reporter; control for the full effect not named in the record; Potency, µM (series often up to 37.9 µM), inactives show top-dose activity change, negative = inhibition, most hits filed as inhibitors; 1.2% of 300,000 active; active means well fitted inhibition curve with a large enough effect; inconclusive means small, poorly fitted or top-dose-only effect, or effect the other way; inactive means flat fitted curve, though single readings scatter; tested in HEK293 cells; note: % is set by controls: 0 for no effect and ±100 for the full control effect; nearly all actives have a fitted effect of over 50% in size; luciferase read-out
StopGo reporter = High Throughput Screening for Foot and Mouth Disease Virus Antivirals. 1.2% of 410,000 active. AID 1159524, 2015. human cells with a luciferase reporter of 2A StopGo recoding; control for the full effect not named in the record. Potency, µM (series often up to 57.9 µM), inactives show top-dose signal change, negative = less light; active = well fitted falling curve with a large enough effect; inconclusive = small, poorly fitted or top-dose-only effect; inactive = no such curve, though single readings can be large or run the other way; tested in HEK293T cells; note: % is set by controls: 0 for no effect and ±100 for the full control effect; nearly all actives have a fitted effect of over 45% in size; luciferase light after 4 h
Marburg entry inh = qHTS for inhibitors of binding or entry into cells for Marburg Virus; Marburg virus pseudotyped entry inhibition, cell reporter; control for the full effect not named in the record; about a third of the inactives were read at about 46 µM; Potency, µM (titrated, usually from 37.8 µM), for the others: top-dose activity change, negative = inhibition, hits mostly inhibitors; 1.8% of 300,000 active; active = well fitted inhibition curve with a large enough effect; inconclusive = small, poorly fitted or top-dose-only effect, or effect the other way; inactive = flat fitted curve, though single readings scatter; tested in HEK293 cells; about a fifth of its hits are not listed in these tables; note: % is set by controls: 0 for no effect and ±100 for the full control effect; luciferase read-out
Cruzain inh Det = qHTS Assay for Promiscuous and Specific Inhibitors of Cruzain (with detergent) | Cruzipain (Trypanosoma cruzi), P25779 | purified cruzain, Z-FR-AMC fluorescence, 0.01% Triton | Potency, µM, for inactives: max response, negative = inhibition, actives largely listed as inhibitors | 0.43% of 200,000 active; active = well fitted curve in the direction sought with a large enough effect; inconclusive = small, poorly fitted or top-dose-only effect, or another doubt; inactive = no such curve, though single readings can be large; an effect the other way counts as inactive or inconclusive;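 note: plate controls were neutral wells for no effect and buffer without enzyme for full effect; nearly all actives have a fitted effect of over 40% in size; top concentration of the series not given in the record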
Target sequence (P25779 123-467 limits assumed): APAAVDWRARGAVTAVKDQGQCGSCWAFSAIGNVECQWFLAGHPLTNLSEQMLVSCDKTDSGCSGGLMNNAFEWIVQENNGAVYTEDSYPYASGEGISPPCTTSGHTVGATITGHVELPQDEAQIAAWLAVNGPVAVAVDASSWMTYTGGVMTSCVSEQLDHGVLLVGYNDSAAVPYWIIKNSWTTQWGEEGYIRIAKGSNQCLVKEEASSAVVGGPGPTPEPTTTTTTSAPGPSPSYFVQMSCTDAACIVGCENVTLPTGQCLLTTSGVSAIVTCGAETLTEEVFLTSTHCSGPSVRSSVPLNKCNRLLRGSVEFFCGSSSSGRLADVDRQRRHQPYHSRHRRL
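Read-out: AMC fluorescence (360 nm excitation, 450 nm emission), four reads over 2 min, first-to-third difference used. Conditions: cruzain 1.5 nM, Z-FR-AMC 2 uM, pH 5.5 acetate, 5 mM DTT, 0.01% Triton X-100.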
Cruzain inh noDet = qHTS Assay for Promiscuous and Specific Inhibitors of Cruzain (without detergent) | Cruzipain (Trypanosoma cruzi), P25779 | purified cruzain, Z-FR-AMC fluorescence, no detergent | Potency, µM, without a hit: max response, negative = inhibition, usual class: inhibitors | 2.3% of 200,000 active; active = well fitted curve in the direction sought with a large enough effect; inconclusive = small, poorly fitted or top-dose-only effect, or another doubt; inactive = no such curve, though single readings can be large; an effect the other way counts as inactive or inconclusive;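 note: plate controls were enzyme without inhibitor for no effect and buffer without enzyme for full effect; nearly all actives have a fitted effect of over 40% in size; top concentration of the series not given in the record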
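Detergent-free condition (0.00005% Triton X-100) in acetate buffer pH 5.5 with DTT. 1.5 nM enzyme and compound were pre-mixed 15 min, then 2 uM Z-FR-AMC substrate added; reaction progress from fluorescence change between first and third reads (60 s).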
RE007 growth inh = qHTS Assay for Inhibitors of the HIV-1 protein Vpr; 0.21% of 360,000 active; AID 651644, 2012; S. pombe RE007 Vpr strain, BacTiter-Glo ATP luminescence, 24 h; control for the full effect not named in the record; Potency, µM (series often up to 92.2 µM), for the others: at the highest dose activity change, negative = less growth; active = well fitted falling curve with a large enough effect; inconclusive = small, poorly fitted or top-dose-only effect; inactive = no such curve, though single readings can be large or run the other way;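 note: % is set by controls: 0 for no effect and ±100 for the full control effect; nearly all actives have a fitted effect of over 50% in size; the assay follows cell death caused by Vpr and the record does not say whether a fall means rescue or toxicity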
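Fission yeast strain RE007, carrying one chromosomally integrated HIV-1 vpr copy, was seeded at OD 0.01 in PMG+AL medium with 23 nL pinned compound. After 24 h at 30 °C and 99% humidity, viability was read by BacTiter-Glo luminescence.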
Starred values were filed as active, the others as inactive; ? = inconclusive; nt = not tested or not shown; & = joins results of further samples; [ ] = dose if it differs, or a comment. Unless noted, calls come from the whole dose curve; as a rule, active means well fitted rising curve with a large enough effect; inconclusive means small, poorly fitted or top-dose-only effect; inactive means no such curve, though single readings can be large or run the other way. Potency is the fitted concentration of half-maximal effect.

SMILES	NS1 function inh	SARS PLpro yeast	Lassa entry inh	StopGo reporter	Marburg entry inh	Cruzain inh Det	Cruzain inh noDet	RE007 growth inh
Cc1cccc(C)c1NC(=O)Cn1nnc(-c2ccc(CN3CCC(C)CC3)cc2)n1	-3%	1%	?	-1%	0%[46.1 µM]	nt	nt	-6%
CC(C)CN(C(=O)CN1CCN(c2ccc([N+](=O)[O-])cc2)CC1)c1c(N)n(CC(C)C)c(=O)[nH]c1=O	nt	0%	1%[46.1 µM]	-4%	5%[46.1 µM]	nt	nt	-6%
CC(=O)N1CCN(C(=O)c2ccc(NS(=O)(=O)c3ccc(Cl)c(Cl)c3)cc2)CC1	nt	nt	10%	2%	0%	nt	nt	-12%
COc1ccccc1NC(=O)CSc1nc2ccccc2c(=O)n1C	-48%	3%	nt	14µM*	nt	nt	nt	3%
O=[N+]([O-])c1cccnc1-n1cnc2ccccc21	22%	4%	17%	-5%	16%	-1.4%	-6%	12%
CNc1nc(-c2ccccn2)nnc1-c1ccccc1	-44%	?	?	18%	?	4.6%	6%	-16%
Cn1nccc1C(=O)Nc1cccc(S(=O)(=O)N2CCOCC2)c1	-1%	-2%	nt	-17%	nt	nt	nt	4%
O=C(c1cnc2ccc3ccccc3c2c1)c1cc(F)ccc1O	-28%	-1%	nt	?	nt	nt	nt	-18%
CCOc1ccc2nc(N3CCCC(C(=O)NCC4CCCO4)C3)sc2c1 (stereo not drawn)	2%	-1%	nt	21%	nt	nt	nt	-6%
O=C1CCCC2=C1C1(CCCCC1)N=C(Nc1nc3ccccc3o1)N2	-77%	19%	0%	-10%	-9%	-16%	24%	-1%
C/C(=N\O)c1cc(Cl)ccc1O	9%	-1%	nt	0%	nt	nt	nt	-20%
Fc1ccccc1CNc1ccc(Cl)cc1	-1%	1%	9%	44%[activator]	?	-3.9%	-10%	1%
Cc1cc(C)n2nc(C(=O)OC(C)C(=O)c3cc(C)c(C)cc3C)nc2n1 (stereo not drawn)	nt	12%	-15%	-21%	2%	nt	nt	6%
CCOC(=O)c1[nH]c(C)c(C(=O)OCc2c(C)noc2C)c1C	-2%	-6%	-24%	-6%	?	-2.3%	11%	2%
CCOC(=O)N1CCC(NS(=O)(=O)c2ccc(NC(C)=O)c(Cl)c2)CC1	2%	1%	?	1%	?	nt	nt	17%
COc1ccc(OC)c(S(=O)(=O)NCCCN2CCCC2=O)c1	6%	-2%	-1%[46.1 µM]	22%	8%[46.1 µM]	nt	nt	1%
CCCN1CCN(CCCNC(=O)CN2C(=O)C(CC)Oc3ccccc32)CC1 (stereo not drawn)	-15%	9%	nt	7%	nt	nt	nt	6%
CC(Cl)C(=O)NNC(=O)CNS(=O)(=O)c1ccccc1 (stereo not drawn)	4%	-1%	-15%	-26%	-16%	nt	nt	7%
Cc1cccc(NC(=O)COc2ccc(/C=C\c3[nH]c(=O)[nH]c(=O)c3[N+](=O)[O-])cc2)c1	-1%	-1%	-2%	7%	2%[46.1 µM]	nt	nt	4%
Cc1ccc2nc(C)cc(N3CCOCC3)c2c1	7%	nt	-4%	-25%	3%	1.0%	-12%	-4%
Cc1cccc(-c2nc(Cn3c(SCc4cccc(C(F)(F)F)c4)nc4ccncc43)c(C)o2)c1	nt	nt	-20%[46.1 µM]	-22%	-7%[46.1 µM]	-3.8%	-12%	nt
CN(C)C(=S)NC1(C)CCS(=O)(=O)C1 (stereo not drawn)	3%	2%	-3%	-13%	?	7.1%	6%	-4%
O=C(Nc1ccc(S(=O)(=O)Nc2ccccn2)cc1)c1cccc(Br)c1	13%	nt	11%	24%	-20%	nt	nt	9%
O=C(Nc1cccc(S(=O)(=O)N2CCCCC2)c1)c1ccc2c(=O)n3c(nc2c1)CCCCC3	?	-2%	?	3.2µM*	3.2µM*	-4.3%	25%	24%
O=C(Nc1ccc(Br)cc1)c1cc2nc(-c3ccccc3)cc(-c3ccccc3)n2n1	nt	nt	-2%[46.1 µM]	-8%	nt	-2.2%	?	nt
O=C(NCC1CCCO1)/C(=C/c1ccc(Cl)cc1)NC(=O)c1ccccc1 (stereo not drawn)	-8%	8%	0%	4%	?	-2.9%	-1%	9%
COc1ccc(C(=O)Nc2ccc(NC(=O)c3ccco3)cc2)cc1	-3%	-4%	-1%	14%	?	nt	nt	3%
Cc1ccccc1N1CCN(C(=O)CCN2C(=O)c3ccccc3C2=O)CC1	0%	2%	?	nt	16%	0.8%	1%	13%
COc1ccc(Cl)cc1S(=O)(=O)N1CCCC(C(=O)N2CCCC2)C1 (stereo not drawn)	-3%	-1%	6%[46.1 µM]	-18%	-13%[46.1 µM]	nt	nt	-2%
COc1cc(NC(=O)c2nnn(CC(=O)Nc3cc(C)ccc3C)c2N)cc(OC)c1	nt	nt	-8%[46.1 µM]	0%	nt	-1.0%	3%	nt
CCOC(=O)Cc1csc(SC(C)C(=O)Nc2ccc(NC(C)=O)cc2)n1 (stereo not drawn)	-6%	-1%	0%	-8%	-1%	5.7%	-1%	26%
COc1ccccc1NC(=O)c1cc(S(=O)(=O)N2CCCCCC2)ccc1F	3%	-2%	?	7%	2%[46.1 µM]	nt	nt	-5%
N#C/C(=C\c1ccncc1)c1nc2ccccc2o1	-2%	0%	-30%	18%	-18%[46.1 µM]	nt	nt	-8%
CCCCN(C(=O)Cc1ccc(S(=O)(=O)N2CCOCC2)s1)c1ccccc1	nt	1%	4%	?	14%	nt	nt	-15%
O=S(=O)(NCC(c1ccco1)N1CCN(c2ccccc2F)CC1)c1ccccc1 (stereo not drawn)	-40%	-6%	?	-13%	?	-5.4%	-8%	19%
NC(=O)COc1ccc(-c2noc(COc3ccc(Cl)cc3)n2)cc1	nt	nt	-13%[46.1 µM]	0%	-1%[46.1 µM]	-0.5%	-5%	nt
CC(C)CCN1CCN(CCCn2cccn2)CC1CCO (stereo not drawn)	5%	1%	nt	-11%	nt	nt	nt	9%
O=C1OC(C(=O)O)Cc2ccccc21 (stereo not drawn)	-7%	14%	?	nt	0%	-0.3%	-1%	4%
Cc1ccc(CNS(=O)(=O)c2cc(C(=O)Nc3ccc(C(C)C)cc3)ccc2F)cc1	nt	nt	-18%[46.1 µM]	-17%	nt	-4.2%	-4%	nt
C/C(=N\NC(=S)Nc1c(C)cccc1C)c1ccc(OC(F)F)cc1	9%	13%	?	-9%	?	-5.4%	-17%	14%
Cc1ccc(/C=N/c2sc3c(c2C#N)CCC3)s1	0%	-5%	-14%	14%	?	-2.8%	-4%	-13%
S=C(NC1CC1)N1CCc2ccccc2C1	0%	-1%	3%	-5%	2%	nt	nt	-11%
Nc1nonc1-c1noc(N2CCOCC2)n1	21%	0%	17%	-24%	?	-1.3%	2%	17%
Cc1ccc(S(=O)(=O)Nc2ccc3nc(N)sc3c2)cc1	-3%	6%	-8%	41%[activator]	-26%	-4.4%	-25%	0%
Cc1cccn2c(/C=N/OCc3ccc(F)cc3)c(-c3ccc(Cl)cc3)nc12	-6%	6%	5%	?	8%	2.6%	-25%	1%
CC(NC(=O)Cc1ccccc1)c1ccccc1 (stereo not drawn)	11%	-2%	nt	4%	nt	nt	nt	3%
O=C(Nc1ccc(C(=O)N2CCOCC2)cc1)Nc1cccc(Cl)c1	-6%&-26%	-32%	15%&-3%	40%[activator]	?	-5.5%	-9%	-16%
CCCCOC(=O)Nc1cc(OC)c(Cl)cc1OC	-41%	-10%	-8%	4%	-8%	1.2%	5%	-9%
CCCCCn1c(=N)c(S(=O)(=O)c2ccccc2)cc2c(=O)n3ccccc3nc21	nt	nt	12%[46.1 µM]	6%	-8%[46.1 µM]	-0.5%	1%	nt
O=C(c1ccc(-c2cccc([N+](=O)[O-])c2)o1)N1CCN(c2ccc([N+](=O)[O-])cc2)CC1	nt	-1%	-30%	?	?	nt	nt	-10%
Further records follow.
SMILES	NS1 function inh	SARS PLpro yeast	Lassa entry inh	StopGo reporter	Marburg entry inh	Cruzain inh Det	Cruzain inh noDet	RE007 growth inh
O=C(NCC(c1ccc2c(c1)OCO2)N1CCN(c2ccccc2)CC1)c1ccccc1F (stereo not drawn)	nt	nt	-23%[46.1 µM]	9%	nt	2.0%	0%	nt
O=C(Cn1nc(-c2ccccc2F)ccc1=O)NCc1ccc2c(c1)OCO2	-1%	8%	7%	-4%	-15%	-3.5%	1%	-9%
Cc1ccc(NC(=O)CSCC(=O)Nc2cc(Cl)ccc2N2CCOCC2)cc1	nt	1%	7%	-17%	?	nt	nt	0%
Cc1nc2ccc(NC(=O)c3ccc(Cl)c(S(=O)(=O)N(C)c4ccccc4)c3)cc2s1	0%	-9%	?	8.9µM*	?	-4.2%	4%	0%
COc1ccc(CNC(=O)c2ccc3c(c2)N(C)C(=O)CS3=O)cc1 (stereo not drawn)	14µM*	2%	nt	-17%	nt	0.5%	-11%	-1%
COc1ccc(COC(=O)C2=C(C)NC(=O)NC2c2cc(Br)c(O)c(OC)c2)cc1 (stereo not drawn)	-5%	0%	nt	-15%	nt	nt	nt	7%
Cc1cccc(NC(=O)CCCN2C(=O)C(c3ccccc3)Oc3cccnc32)c1C (stereo not drawn)	-3%	3%	nt	?	nt	nt	nt	9%
COc1ccc(Cl)cc1C(=O)Nc1ccc(NC(C)=O)cc1	-1%	-1%	-20%	8%	2%[46.1 µM]	nt	nt	-14%
Cc1ccc(S(=O)(=O)N2CCOCC2)cc1NC(=O)COC(=O)Cc1ccc(Cl)cc1	nt	3%	3%	-15%	-7%	nt	nt	17%
CCCCOc1ccc(CNC(=O)NS(=O)(=O)c2ccc(OCC)cc2)cc1	0%	1%	-24%	-7%	3%	-0.2%	20µM*	19%
Cc1nn(C)c2c1c(C(F)(F)F)cc(=O)n2C(C)C(=O)NCCC(C)C (stereo not drawn)	nt	nt	-2%[46.1 µM]	-23%	nt	-1.3%	?	nt

The order is random. Share with any hit: about 4.8%.
